AmpC nodet inh: AmpC beta-lactamase inhibition, detergent-free assay; AmpC nitrocefin hydrolysis, absorbance 480 nm, no detergent; potencies from a single point are estimates; AID 585; 1.8% of 71,000 active; Potency, µM (doses to about 28.7 µM), inactives show at the highest dose activity change, negative = inhibition; active = falling curve, for most hits resting on a single point; inconclusive = weak or doubtful change; inactive = flat or rising curve; note: % of control where 0% means no effect; about half of the hits show no inhibition at the top dose; a quarter of the inactives give rising signals
Target sequence (P00811 whole entry, looked up): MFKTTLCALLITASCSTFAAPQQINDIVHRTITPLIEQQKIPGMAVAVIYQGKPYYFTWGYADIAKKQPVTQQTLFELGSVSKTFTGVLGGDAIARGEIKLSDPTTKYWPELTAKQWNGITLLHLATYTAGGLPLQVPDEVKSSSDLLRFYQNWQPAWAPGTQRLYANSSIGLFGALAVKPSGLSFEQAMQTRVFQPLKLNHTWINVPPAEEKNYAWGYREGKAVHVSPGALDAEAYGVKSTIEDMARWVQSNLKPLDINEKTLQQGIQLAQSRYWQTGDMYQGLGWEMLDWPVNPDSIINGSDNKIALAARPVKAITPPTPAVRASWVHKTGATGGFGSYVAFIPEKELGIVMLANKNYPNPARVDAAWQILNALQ
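Enzyme, pH 7.0 phosphate. Compound titrations were pre-incubated with AmpC for 15 min at room temperature before nitrocefin (stock 800 uM) addition; product formation was recorded at 480 nm every 20 s for 4 min.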
* marks the source's active call; other numbers are inactive results; ? = inconclusive; [ ] = remark or other dose. Potency is the fitted concentration of half-maximal effect.

SMILES	AmpC nodet inh
CC(=O)c1ccc(NC(=O)C2CCCNC2=O)cc1 (stereo unspecified)	-4%
COc1cccc(-c2nc3n(n2)C(c2ccccc2Cl)C(C(N)=O)=C(C)N3)c1 (stereo unspecified)	4%
CC1Cc2ccccc2N1C(=O)CSC1=NCCS1 (stereo unspecified)	1%
CCc1nnc(-n2nc(C)cc2-c2ccccc2)n1N	4%
CC(C)(C)n1nnnc1C(c1cccs1)N1CCCC2(CCCCC2)C1 (stereo unspecified)	-2%
COc1nnc(-c2ccc(N3CCCCC3)c(N)c2)c2ccccc12	71%
CCCCn1c(-c2ccsc2)nc2c1c(=O)[nH]c(=O)n2CCC	-2%
CC(C)Oc1ccc(NC(=O)C2CCCNC2=O)cc1 (stereo unspecified)	-7%
CCc1ccc2[nH]c(=O)c(CN(Cc3ccc(OC)cc3)Cc3nnnn3CCOC)cc2c1	94%
CCCOC(=O)C1=C(C)NC2=C(C(=O)C(C(=O)OC)C(C)C2)C1c1ccc(N(C)C)cc1 (stereo unspecified)	113%
Cn1c(=O)c2cn(-c3ccc4c(c3)OCCO4)cc2n(C)c1=O	13%
O=C(c1cccc(N2C(=O)C3CC=CCC3C2=O)c1)N1CCN(c2ccccc2)CC1 (stereo unspecified)	94%
CCn1c(CC(=O)Nc2ccccc2F)nnc1SCC(=O)N1CCN(c2ccccc2)CC1	56%
Cc1nc(C)c(C(=O)NCc2ccccc2Cl)o1	9%
Cc1nnc2sc(-c3ccc(NC(=O)c4ccc(-c5ccc(Cl)cc5Cl)o4)cc3)nn12	15%
COc1ccc(C(C)=O)c(OC(=O)c2ccc(OC)c(OC)c2)c1	33%
Nc1ncnc2c1ncn2[C@@H]1O[C@@H](COP(=O)(O)OP(=O)(O)OP(=O)(O)OP(=O)(O)OC[C@@H]2O[C@@H](n3cnc4c(N)ncnc43)[C@@H](O)[C@H]2O)[C@H](O)[C@@H]1O	4%
Nc1sccc1C(=O)c1ccc(Cl)cc1	-18%
COc1cccc(-c2ccc3ncnc(N4CCN(C)CC4)c3c2)c1	126%
O=C(c1ccsc1)N1CCN(C(=O)c2cccs2)CC1	-2%

Among those listed so far, these have a thiophene ring, fused or not:
SMILES	AmpC nodet inh
CC(C)(C)n1nnnc1C(c1cccs1)N1CCCC2(CCCCC2)C1 (stereo unspecified)	-2%
CCCCn1c(-c2ccsc2)nc2c1c(=O)[nH]c(=O)n2CCC	-2%
Nc1sccc1C(=O)c1ccc(Cl)cc1	-18%
O=C(c1ccsc1)N1CCN(C(=O)c2cccs2)CC1	-2%

Six records drawn at random from those above, as already listed:
SMILES	AmpC nodet inh
Nc1sccc1C(=O)c1ccc(Cl)cc1	-18%
CCCOC(=O)C1=C(C)NC2=C(C(=O)C(C(=O)OC)C(C)C2)C1c1ccc(N(C)C)cc1 (stereo unspecified)	113%
Cc1nc(C)c(C(=O)NCc2ccccc2Cl)o1	9%
O=C(c1ccsc1)N1CCN(C(=O)c2cccs2)CC1	-2%
CCn1c(CC(=O)Nc2ccccc2F)nnc1SCC(=O)N1CCN(c2ccccc2)CC1	56%
COc1cccc(-c2nc3n(n2)C(c2ccccc2Cl)C(C(N)=O)=C(C)N3)c1 (stereo unspecified)	4%

(continued)
SMILES	AmpC nodet inh
C(CCc1nnc2c(n1)CCCC2)Cc1nnc2c(n1)CCCC2	-6%[5.75 µM]
ClCCOCCCl	-6%
COc1ccccc1NC(=O)c1ccc(CN2CCOCC2)cc1	14%
CCOC(=O)c1ccc(NC(=O)Nc2ccc3c(c2)OCCO3)cc1	-18%
CCn1cc(C(=O)N2CC(C)CC(C)C2)c(=O)c2cc(S(=O)(=O)N3CCOCC3)ccc21 (stereo unspecified)	57%
Cn1nnc2c(NCc3ccco3)nccc21	0%
O=C(Nc1ccc(F)cc1)Nc1ccc(Cl)cn1	-8%
CCn1cc(C(=O)NCCOC)c(=O)c2ccc(C)nc21	-9%
Cc1oc2c(CN3CCOCC3)c(O)ccc2c(=O)c1-c1ccccc1	-7%
Cc1cc(C)cc(NC(=O)C2CCCN(c3nc(C)cc(C)n3)C2)c1 (stereo unspecified)	8%
COc1cccc(C2CC(=O)N3CN(c4cccc(Cl)c4C)CSC3=C2C#N)c1OC (stereo unspecified)	4µM*[single pt active]
COc1ccc(NC(=O)c2coc3ccccc23)cc1OC	9%
CCn1c(C(=O)N2CCCC(C(=O)NCCCc3ccccc3)C2)cc2sccc21 (stereo unspecified)	125%
Cc1nnc2sc(-c3ccc(NC(=O)c4cccnc4)cc3)nn12	12%
COCCNC(=O)CN(c1ccccc1OC)S(C)(=O)=O	-9%
CC(=O)C1C(=O)NC23CCCCC2C1c1ccccc1O3 (stereo unspecified)	-7%
O=C1N(O)C2(C=CCCC2)/C(=N\O)C12CCCCC2 (stereo unspecified)	-7%
CCOc1ccc(Nc2ncnc(N)n2)cc1	-1%
CCCN(CCC)C(=O)Cn1c(=O)n(CCCCC(=O)NC2CCCC2)c(=O)c2ccccc21	90%
CC(C)C(=O)Nc1nnc(CCc2nnc(NC(=O)C(C)C)s2)s1	17%
O=P(CCNCc1ccco1)(c1ccccc1)c1ccccc1	15%
COc1ccc(Cc2nn3c(Cn4nnc5ccccc54)nnc3s2)cc1	6%
COc1cccc(CN(C(=O)c2cc3ccccc3oc2=O)C2CC2)c1	38%
COc1cccc(NC(=O)CCS(=O)(=O)c2cccs2)c1	0%
COc1ccc(C2=C(C)CC(C)(C)NC2=O)cc1OC	15%
C=CCOC(=O)CN1C(=O)c2ccccc2C1=O	25%
N#CC1=C(SCC(=O)c2cc3ccccc3oc2=O)NC(=O)C(C#N)C12CCCC2 (stereo unspecified)	?
Cc1nnc(SCC(=O)c2cc(C)n(-c3c(C)n(C)n(-c4ccccc4)c3=O)c2C)s1	21%
COc1cccc(C2NC(=O)NC(O)(C(F)(F)F)C2C(=O)c2cccnc2)c1OC (stereo unspecified)	8%
CCc1nnc(NC(=O)C2Cc3ccccc3CN2S(=O)(=O)c2cccs2)s1 (stereo unspecified)	8%
O=c1c2ccccc2nc2c3ccccc3c(N3CCOCC3)nn12	98%
COC(=O)CN(c1ccccc1C)S(C)(=O)=O	-1%
O=c1cc(-c2ccco2)oc2ccc(Cl)cc12	-1%
CC(C)n1nc(C(=O)NCCc2ccc(S(N)(=O)=O)cc2)c2ccccc2c1=O	2%
Cc1occc1-c1nnc(SCC(=O)c2cc3ccccc3oc2=O)o1	-24%
Cn1c(=O)cc(OCCCC(=O)NCc2ccc3c(c2)OCO3)c2ccccc21	58%
COc1cccc(-c2cc(C(F)(F)F)nc(-n3cncn3)n2)c1	23%
Oc1ccc(-c2csc(NCc3ccco3)n2)cc1	-6%
Cc1[nH]c2ccccc2c1C(=O)CN1CCC(C(N)=O)(N2CCCCC2)CC1	-1%
COc1cc(OC)c(-c2nn3c(-c4ccncc4)nnc3s2)cc1OC	35%

Reformatted: two of the compounds above
SMILES,AmpC nodet inh
COc1cccc(C2CC(=O)N3CN(c4cccc(Cl)c4C)CSC3=C2C#N)c1OC (stereo unspecified),4µM*[single pt active]
COc1ccc(NC(=O)c2coc3ccccc23)cc1OC,9%

Next part:
SMILES	AmpC nodet inh
Cc1cccc(OCc2nc(C#N)c(NCc3ccc4c(c3)OCO4)o2)c1	-11%
O=c1cc(-c2ccccc2)[nH]n1-c1nc2ccccc2[nH]1	-24%
CCOc1ccc(Nc2nc3c(c(=O)[nH]2)CCC3)cc1	-1%
CCOC(=O)N1CCN(c2nc(C)c3c(n2)CCCC3=O)CC1	27%
Clc1cccc(-c2ccc(/C=N/n3cnnc3)o2)c1	42%
C=CCn1c(SCC(=O)NC(=O)NC2CCCC2)nnc1C1CCCCC1	43%
COCCn1c(CN2CCC(Cc3ccccc3)CC2)nc2c1c(=O)n(C)c(=O)n2C	99%
CC1(C)C(N(O)C(=O)Nc2ccccc2)N(c2cccc(Cl)c2)C(=O)N1O (stereo unspecified)	-24%
CC(C)Cn1c(=O)c2c(nc3n2CCCN3CCc2ccccc2)n(C)c1=O	97%
Brc1cccc(-c2nnc3sc(CN4CCC5(CC4)OCCO5)cn23)c1	42%
O=C1CCCc2[nH]nc(-c3cccnc3)c21	-12%
C=CCNC(=O)c1oc2ccc(S(=O)(=O)N(CC)CC)cc2c1C	10%
COc1ccc2oc(C(=O)C3CC3)c(NC(=O)CCCN3C(=O)c4ccccc4C3=O)c2c1	3%
N#C/C(=C\c1ccc(O)c(O)c1)C(N)=O	-4%
Cc1ccc(C(=O)Nc2ncc(Cc3ccccc3)s2)o1	0%
Cc1noc(C)c1CSc1ncnc2sc3c(c12)CCC3	18%
OC(c1cccnc1)c1cccs1 (stereo unspecified)	4%
CCOC(=O)/C(C#N)=C1/SC(CC)C(=O)N1c1ccc(C)cc1 (stereo unspecified)	-4%
COC(=O)c1[nH]c(C)c(/C(O)=C2\C(=O)C(=O)N(CCN(C)C)C2c2ccco2)c1C (stereo unspecified)	0%
CC(=O)N1CCN(c2ccc(NCc3ccc4c(c3)OCO4)cc2)CC1	47%
CCOc1cc(C(=O)NCc2nnc(SCC(=O)OC)n2C)cc(OCC)c1OCC	50%
O=C(Nc1ccc(SC(F)F)cc1)C1=COCCO1	3%
CCn1c(SCC(N)=O)nnc1-c1ccc(S(=O)(=O)N2CCN(C)CC2)cc1	-5%
O=C(CSC1=NCCS1)Nc1nc2c(s1)CCCC2	-20%
CCCCCCNS(=O)(=O)c1ccc(Cl)s1	-22%
CCOc1ccc(OCC)c(Nc2cc(C)nc3nc(C)nn23)c1	61%
CCn1c(C)nc2cc(C(=O)OC(C(F)(F)C(F)F)C(F)(F)C(F)F)ccc21	123%
O=C1C2C(C(=O)N1c1ccncc1)C1C=CC2C12CC2 (stereo unspecified)	18%
COC(=O)n1ccc(C(=O)Nc2ccccc2F)n1	10%
CNc1ccnc(-c2ccccc2CN(C)C)n1	-16%
COC(=O)CN(c1ccccn1)S(=O)(=O)c1ccccc1	-17%
Cc1ccc(CNc2oc(-c3cccs3)nc2C#N)cc1	2%
COC(=O)N1CCC2(CCCN(Cc3nccs3)C2)CC1	98%
COCC(=O)Nc1sc2c(c1C(=O)OC)CCC(C)C2 (stereo unspecified)	71%
COc1cccc(N2CCN(CC(=O)c3c[nH]c4ccc(OC)cc34)CC2C)c1 (stereo unspecified)	39%
Cc1ccccc1S(=O)(=O)Cc1ccc(C(=O)NCCN2CCN(Cc3ccccc3)CC2)o1	60%
COc1ccc(C2NCCO2)cc1OC (stereo unspecified)	-6%
CC12CC(NC(=O)N1c1cccc(C(=O)Nc3ncn[nH]3)c1)c1ccccc1O2 (stereo unspecified)	19%
CC(C)(C)NC(=O)C(c1ccc(F)cc1)N(Cc1ccco1)C(=O)c1csnn1 (stereo unspecified)	21%
COc1ccc2[nH]cc(CCNc3ncncc3-c3c(C)noc3C)c2c1	16%
CC(C)(C#N)Nn1cnnc1	7%
Cn1nnnc1SCc1cc(=O)[nH]c2ccccc12	-8%
CCOC(=O)CC(N)c1ccc(OC)cc1 (stereo unspecified)	-18%
COCCNC(=O)CSc1nc2c(n1-c1ccccc1)CCCC2	37%
O=C(CSc1nnc(-c2ccc(S(=O)(=O)N3CCCC3)cc2)n1CC1CCCO1)NC1CC1 (stereo unspecified)	10%
CCn1cc(C(=O)N2CCCC2)c(=O)c2cc(S(=O)(=O)N(C)C)ccc21	14%
CC(=O)OC1CC(C)(C)N(OC(=O)c2ccc(N)cc2)C(C)(C)C1	12%
CCn1c(=O)c(C(=O)CN2CCOCC2)c(N)n(Cc2ccccc2)c1=O	4%
CCOC(=O)c1[nH]c(C)c(CCC(=O)OC)c1C	10%
Cc1nc2ccc(S(=O)(=O)NCC(=O)N(C)Cc3ccco3)cc2s1	-2%
COc1ccccc1NC(=O)N(Cc1ccco1)Cc1cc2cc(C)cc(C)c2[nH]c1=O	40%
CCC(=O)Nc1ccc(S(=O)(=O)Nc2cccnc2)cc1	-17%
COc1cccc(-c2cnc(NCc3cc(Cl)ccc3O)n2C)c1	13µM*
CCOC(=O)c1cc(-c2ccncc2)nc2c1c(C)nn2C	111%
COC(=O)Cc1c(C)c2c(O)cc(C)cc2oc1=O	-14%
COc1ccccc1S(=O)(=O)Cc1ccc(C(=O)N2CCN(c3ccccc3)CC2)o1	97%
CCC1SC2=NC(C)=C(C(=O)OC)C(c3cccs3)N2C1=O (stereo unspecified)	11%
NC(=O)CSc1nc2scc(-c3ccco3)c2c(=O)n1-c1ccccc1	-3%
Cn1nnnc1SCC(=O)NCCCc1ccccc1	-9%
COCCNC(=O)c1cc2c(=O)n(C)c3ccccc3c2n1C	4µM*[single pt active]

Five neighbouring compounds out of the list so far, quoted:
SMILES	AmpC nodet inh
COc1ccccc1S(=O)(=O)Cc1ccc(C(=O)N2CCN(c3ccccc3)CC2)o1	97%
CCC1SC2=NC(C)=C(C(=O)OC)C(c3cccs3)N2C1=O (stereo unspecified)	11%
NC(=O)CSc1nc2scc(-c3ccco3)c2c(=O)n1-c1ccccc1	-3%
Cn1nnnc1SCC(=O)NCCCc1ccccc1	-9%
COCCNC(=O)c1cc2c(=O)n(C)c3ccccc3c2n1C	4µM*[single pt active]

Next results
SMILES	AmpC nodet inh
CCCN(C(=O)CSc1nnc(-c2ccoc2C)n1N)C1CCS(=O)(=O)C1 (stereo unspecified)	-3%
NS(=O)(=O)c1ccc(CCNc2nc(CN3CCOCC3)nc3sc4c(c23)CCC4)cc1	57%
CCCCCn1c2nc3ccccc3nc2c2c(=O)n(CC3CCCO3)c(C)nc21 (stereo unspecified)	72%
Nc1nc(Nc2ccc(Cl)cc2Cl)nc(C(F)(F)F)n1	-3%
Cc1ccccc1-n1c(O)c(C=Nc2ccc(N(C)C)cc2)c(=O)[nH]c1=O	24%

Not all compounds are listed. The share of hits here may be higher or lower than overall.
